Tgondii IFNg: blocks Toxoplasma gondii growth in the presence of IFN-gamma; hit rate 3.8% among 69,000; AID 1259416; activity change, negative = inhibition, %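 (about 20 µM by stock and volumes)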; Toxoplasma gondii growth in IFN-gamma-treated host cells; active compounds read low; reference of the scale not given here;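 active means below -70%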;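 further: host cells are HeLa cells infected with Toxoplasma gondii; parasite growth read as luciferase light; one replicate is shown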
The depositor's hits bear a star; & = joins results of further samples. The list is partial; count on the stated rates, not on these rows.

SMILES	Tgondii IFNg
CCOC(=O)N1CCC2(CC1)OC(=O)C(C)=C2C(=O)NC1CCN(Cc2ccccc2)CC1	33
Cc1c(C(=O)N2CCCC3(CCNCC3)CC2)sc2ncn(C)c(=O)c12	-33
NC(=O)C1(N2CCCCC2)CCN(c2ncc(NC(=O)c3ccc(F)cc3)cc2C(=O)O)CC1	3
CCN(CC)S(=O)(=O)c1ccc2c(c1)NC(=O)CO2	-5
CC(=O)N1CCO[C@H]2CN(S(=O)(=O)c3cccs3)CC[C@@H]2C1	-23
Cc1cc(C)n(CC(=O)N2CCCC(C(=O)c3ccc(Cl)cc3C)C2)n1 (stereo not given)	6
N#C[C@H]1[C@H](c2ccc(-c3cccnc3)cc2)[C@H](CO)N1C(=O)Nc1ccc(F)cc1	17
CO[C@@H]1CCN(Cc2ccc3c(c2)OCO3)[C@H]1Cc1cccnc1	-7
CCn1nc(C)c(C(=O)N2CCC(c3nc(C)c(C)c(N4CCOCC4)n3)CC2)c1C	-6
CC(=O)N1[C@@H]2CN(S(=O)(=O)c3ccccc3C)c3ccccc3[C@@H]2[C@@H]1CO	1
COc1ccc(-c2nc(C)c(CCNS(=O)(=O)c3ccc(OC)c(OC)c3)s2)cc1	475
Cc1noc(C)c1NC(=O)N(C)C[C@@H]1Oc2ccc(NC(=O)Cc3cn(C)c4ccccc34)cc2CC(=O)N([C@@H](C)CO)C[C@@H]1C	7
CN1CCC(Cc2noc(-c3ccnc(-n4cnnc4)c3)n2)CC1	-2
Cc1ccsc1C(=O)N1CCC(N2CCOCC2)CC1C(=O)O (stereo not given)	124
CN(C)C(=O)N1CCC2(CC1)NCCn1c(-c3ccnn3C)cnc12	37
COCC(=O)N1CCC[C@@H]2CN(C(=O)c3ccco3)C[C@H]21	0
O=C1c2ccccc2C2N1CCCN2S(=O)(=O)c1cccc(C(F)(F)F)c1 (stereo not given)	-44
N#C[C@H]1[C@@H](c2ccccc2)[C@H](CO)N1C(=O)c1cc(Cl)cc(Cl)c1	8
COC(=O)c1ccc(NC(=O)c2ccccc2SC)cc1	92
O=C(c1cc2cccnc2n(Cc2ccc(F)cc2)c1=O)N(C1CCCCC1)C1CCCCC1	-11
O=C(O)CCn1c(=O)[nH]c(=O)n(CCC(=O)O)c1=O	-30
C[C@H](CO)N1C[C@H](C)[C@@H](CN(C)Cc2ccc(-c3ccccc3)cc2)Oc2c(NS(C)(=O)=O)cccc2C1=O	-52
COc1ccccc1-c1ccc(C2[C@@H]3CN(Cc4nccs4)C[C@H]2N3)cc1 (stereo not given in full)	-48
C[C@@H]1CN([C@@H](C)CO)C(=O)c2cc(NS(=O)(=O)c3ccc(F)cc3)ccc2O[C@H]1CN(C)C(=O)Nc1ccccc1	58
COCc1cnc2n1CCN(C(=O)c1cnc(C)cn1)C2C (stereo not given)	61
Nc1nc(-c2ccccc2)nn1C(=O)c1cccs1	7
CCCCN(Cc1ccccc1)C(=O)c1cc2cccnc2n(Cc2ccccc2F)c1=O	-62
COc1ccccc1Nc1nnns1	12
CNC(=O)[C@@H]1C[C@@H](N)CN1C(=O)c1c(-c2ccccc2)ccnc1C	7
CCc1csc(N2[C@H](C#N)[C@H](c3ccccc3C3=CCCC3)[C@H]2CO)n1	-5
CCOc1ccc(C(=O)N2CCC3(CC2)Nc2cccnc2NC3=NC2CCCC2)cc1	254
Cc1nc(COC[C@]23CCC[C@@H]2CN(S(C)(=O)=O)C3)cs1	-11
CC1=C(C(=O)NCc2cccc(Cl)c2)C2(CCN(S(=O)(=O)c3cccs3)CC2)OC1=O	19
COc1ccc2c(c1)NC1(CCN(S(=O)(=O)c3ccc(NC(C)=O)cc3)CC1)c1cccn1-2	-27
Cc1cccc(N(CC(=O)N2CCC[C@H]2C(=O)O)S(C)(=O)=O)c1	-14
CCn1cc2c(n1)CN(C(=O)COC)CC2COC (stereo not given)	25
CC1=C(C(=O)Nc2cc(C)cc(C)c2)C2(CCN(C(C)C)CC2)OC1=O	48
Cc1cccc(N2CCCC3(CN(Cc4cncn4C)CCO3)C2)c1 (stereo not given)	400
CCC(=O)Nc1ccc2c(c1)OC[C@@H](C)N(Cc1ccccc1)C[C@@H](C)[C@H](OC)CN(C)C2=O	34
CCOC(=O)C1CCN(C(=O)c2cc3cccnc3n(Cc3ccccc3)c2=O)CC1	-7
COc1ccc(OC)c(NC(=O)Cn2c(=O)cc(C(=O)N3CCc4ccccc4C3)c3ccccc32)c1	-15
O=C(CCN1CCCCC1)N[C@@H]1CC[C@H](CC(=O)N2CCC(Cc3ccccc3)CC2)O[C@@H]1CO	-47
c1ccc(CNc2cc(-c3ccc4ncsc4c3)c3cc[nH]c3n2)nc1	145
Cn1cc(N2CC3(COCCN(CC4CC4)C3)OCC2=O)cn1 (stereo not given)	1
CN(C)S(=O)(=O)c1ccc2c(c1)cc(C(=O)NCc1cccs1)n2Cc1ccncc1	49
Cc1ccc(S(=O)(=O)N2CCC3(CC2)Nc2ccc(C)c(C)c2-n2cccc23)cc1	-38
COC(=O)c1ccc(-c2nccn2C(Cc2ccco2)C(=O)O)cc1 (stereo not given)	-36
Cc1cc(F)ccc1NC(=O)CN[C@@H]1C[C@H]2CC[C@@H]1C2	-5
CC(C)c1nc(CN(C)C(=O)CN2CCCN(C)CC2)cs1	6
COc1cc(OC)nc(/C=C/c2ccccc2)n1	-13

Next section:
SMILES	Tgondii IFNg
COc1cc(NC(=O)CNCc2cc(F)ccc2F)ccc1Cl	-5
OC(CN1CCCC(COc2ccccc2F)C1)c1cccs1 (stereo not given)	-13
COc1ccccc1CN1[C@@H]2c3ccc(C4=CCCC4)c(=O)n3C[C@H]1[C@H](CO)[C@H]2C(=O)N(C)C	-1
CCn1c(C2CCCN(C(=O)c3ccc4scnc4c3)C2)nn(C)c1=O (stereo not given)	5
CCOC(=O)c1noc2nc(C)n(Cc3nc(-c4ccccc4C)oc3C)c(=O)c12	-40
CCOC(=O)COc1nc(C)c(Br)c(OC)n1	29
COc1ccc(-n2nc(C)cc2NC(=O)Cn2c(=O)cc(C)c3ccccc32)cc1	3
O=S(=O)(c1ccc(F)c(F)c1)N1CCN(c2nc(-c3cccs3)ns2)CC1	-14
CC[C@H]1CN(C(=O)C23CC4CC(C2)CC(n2cncn2)(C4)C3)CC[C@@]1(C)O	22
O=C1c2ccccc2C2N1CCCN2C(=O)c1sc2ccccc2c1Cl (stereo not given)	-10

A portion of the results above, as a working copy:
SMILES	Tgondii IFNg
c1ccc(CNc2cc(-c3ccc4ncsc4c3)c3cc[nH]c3n2)nc1	145
Cn1cc(N2CC3(COCCN(CC4CC4)C3)OCC2=O)cn1 (stereo not given)	1

(listing goes on)
SMILES	Tgondii IFNg
O=C(O)c1cccnc1CN(CCO)C12CC3CC(CC(C3)C1)C2	1
CCO[C@H]1COC[C@@H]1NC(=O)Cn1cnc2ccccc2c1=O	-34
COCCNC(=O)C(OC(=O)c1cccs1)c1ccccc1F (stereo not given)	-5
CN(Cc1ccccn1)C(=O)[C@@H]1C[C@H]2CCN(c3ncccn3)C[C@@H]2O1	-9
Cc1ccccc1NS(=O)(=O)c1ccc(Cl)cc1	26
Cc1c(-c2ccc(F)cc2)[nH]c2ccc(CNC(=O)C3=NNC(=O)CC3)cc12	143
COCC(=O)Nc1ccc2c(c1)OC[C@@H](C)N(C)C[C@H](C)[C@H](OC)CN(C)C2=O	-3
Cc1cccc(=O)n1CCCNC(=O)c1ccccc1C1CCNC1 (stereo not given)	30
Cc1cc(C)n(CCCC(=O)N2CCO[C@@H]3CCCC[C@H]32)n1	2
O=C(Nc1ccccc1)N1CCC2(CN(Cc3ccc(O)cc3)C2)C1	-9

4 of these compounds in another layout.
COCCNC(=O)C(OC(=O)c1cccs1)c1ccccc1F (stereo not given)
  Tgondii IFNg: -5

CN(Cc1ccccn1)C(=O)[C@@H]1C[C@H]2CCN(c3ncccn3)C[C@@H]2O1
  Tgondii IFNg: -9

Cc1ccccc1NS(=O)(=O)c1ccc(Cl)cc1
  Tgondii IFNg: 26

Cc1c(-c2ccc(F)cc2)[nH]c2ccc(CNC(=O)C3=NNC(=O)CC3)cc12
  Tgondii IFNg: 143

The listing picks up; the 2 compounds before the break are reprinted first.
SMILES	Tgondii IFNg
Cc1cc(C)n(CCCC(=O)N2CCO[C@@H]3CCCC[C@H]32)n1	2
O=C(Nc1ccccc1)N1CCC2(CN(Cc3ccc(O)cc3)C2)C1	-9
O=C(C(=O)N(Cc1ccccc1)CC1CCC1)c1ccccc1	-13
S=C(NCc1ccco1)Nc1ccc(C2=NCCO2)cc1	-18
Cn1c(=O)c(-c2nc(-c3ccccc3)no2)c(O)c2ccc(F)cc21	219
CC(C)c1ccc(C(=O)NC2CC(=O)N(CCc3ccccc3)C2)c(=O)[nH]1 (stereo not given)	-9
CCc1nc(NC(=O)c2cc3ccccc3c(=O)s2)sc1C	1
CCOC(=O)N1CCC(NC2CCN(c3cccc(NC(=O)CC4CCCC4)c3)CC2)CC1	-12
c1csc(-c2nccn2Cc2ccccc2-n2cccn2)c1	7
Cc1ccccc1N(Cc1nc(-c2ccccc2)oc1C)S(=O)(=O)c1cccs1	-46
CN(C)C(=O)[C@@H]1C[C@H]2CCN(CCOCc3ccccc3)C[C@@H]2O1	-1
O=c1oc2ccccc2cc1-c1csc(-c2cccc([N+](=O)[O-])c2)n1	1
O=C(c1cnccn1)N1CC(=O)N2[C@@H](CO)[C@H](c3ccc(/C=C/c4ccccc4)cc3)[C@@H]2C1	1
CC(C)c1nccc(CN2CCCCC2CCc2ccc(O)cc2)n1 (stereo not given)	16
O=C(C[C@@H]1CC[C@@H](NC(=O)C2CC2)[C@H](CO)O1)Nc1ccccc1	72
Cc1ccc(C(C)CCN2CCC3(CC2)C(=O)N(C(C)C)C(=O)N3CCC(C)C)o1 (stereo not given)	-47
Cc1ccc(N2CCC(n3nccc3NC(=O)c3ccccc3C)CC2)nn1	6
COc1ccccc1CNC(=O)C[C@@H]1CC[C@@H]2[C@H](COc3ccc(NC(C)=O)cc3C(=O)N2C)O1	-14
CSc1cccc(CN(C)C(=O)c2ncn[nH]2)c1	-2
O=C(Cn1ncc2c(N3CCOCC3)ncnc21)N1CCC2(CC1)OCCO2	187
CCc1cnc(C)nc1N1Cc2cnc(-c3ccccc3)nc2C1	-54
CCn1c(-c2oc3nc(-c4ccccc4)cc(-c4ccco4)c3c2N)n[nH]c1=S	66
Cc1ccc2[nH]c(=O)c(-c3nc(-c4ccc(Cl)cc4)no3)c(O)c2c1	32
CCn1c(CC2CCN(CCn3c(=O)oc4ccccc43)CC2)n[nH]c1=O	8
C=CCn1c(=O)c(-c2nc(-c3ccc4c(c3)OCO4)no2)c(O)c2ccccc21	-18
COc1cccc(CC(=O)NCC2C3=C(CCCC3)c3cc(OC)c(OC)cc32)c1 (stereo not given)	14
CCOC(=O)[C@H]1C(=O)C[C@@](C)(O)[C@@H](C(=O)OCC)[C@@H]1c1ccccc1	52
Cc1nc(CN2C(=O)CCC3C2CCN3C(=O)c2ccco2)cs1 (stereo not given)	0
COc1ccc(C2CC(=O)c3cnn(-c4nc5ccccc5s4)c3C2)cc1 (stereo not given)	62
c1ccc(Cc2n[nH]c(CSc3ccccc3)n2)cc1	20
CCCCCCCCCCCCCCCCCCCCCCO	28
CN(C)C(=O)CN1CCCn2c(nc(CN3CCCC3)cc2=O)C1	69
Cc1ccc(S(=O)(=O)Nc2ccc3c(c2)C(=O)N(C)[C@@H]2CC[C@@H](CC(=O)NCCc4ccncc4)O[C@@H]2CO3)cc1	-36
Clc1ccc(-c2nc(NCc3cccnc3)c3ccccc3n2)cc1	-75
Cc1[nH]c(=O)[nH]c(=O)c1CSCC(=O)O	58
c1ccc(-c2cn[nH]c2C2CCCNC2)cc1 (stereo not given)	-43
CS(=O)(=O)NCc1cnc2n1CCN(C(=O)CC1CC1)CC2	-2
COCCN1CCC(CN(C)C(=O)c2ccc(Cl)c(C)c2)C1 (stereo not given)	-4
CO[C@H]1CCN(c2nnc(C)s2)C[C@@H]1Cc1cccc(C)c1	4
Cc1cc(C)c2c(=O)n(Cc3nc(-c4ccccc4C)oc3C)c(=O)n(Cc3ccco3)c2n1	-1
COCC1CN(C(=O)Cc2ccccn2)Cc2c1cnn2C (stereo not given)	52
Cc1ccc(C(=O)N2CCC3(CC2)CC(c2cnn(C)c2)CO3)cn1 (stereo not given)	4
COc1ccccc1NC(=O)N1CCc2nc(-c3ccc(C)cc3)sc2C1	25
CO[C@H]1CN(Cc2nccn2C(C)C)CC[C@H]1N	0
O=C(Nc1ccccc1)C1Cn2ccnc2C2(CCN(C(=O)c3ccno3)CC2)O1 (stereo not given)	1
Cc1nc([C@@H]2CN(C(=O)c3csc(C)c3C)C[C@H]2c2ccccc2F)cc(=O)[nH]1	-15
Nc1c(CC(=O)O)cccc1C(=O)c1ccc(Br)cc1	13&-4
COc1ccccc1N1CC(NC(=O)CCc2c(C)nn(C)c2C)CC1=O (stereo not given)	-4
Cc1nocc1C(=O)N1CCCC2(CC(CN3CCCC3)CO2)C1 (stereo not given)	3
CN(Cc1nc2ccc(Cl)cc2[nH]1)C(=O)c1ccccc1C1CCNC1 (stereo not given)	1
Cc1nccc2[nH]c(=O)ccc12	10
O=C(NCc1nc(Cc2cccs2)no1)c1cccc2ccnn12	-53

From PubChem
